Assay outcomes (PubChem)
UUG fidelity: modulators of yeast start codon fidelity, primary screen, whole organism, S. cerevisiae, single point, plate reader | activity score, % at 18.7 µM | 0.13% of 350,000 active | S. cerevisiae UUG-firefly luciferase reporter, luminescence/redox ratio;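 active means replicate mean at a twofold rise or more, about +100% in these data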;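 further: firefly luciferase made from a UUG start codon reports start codon fidelity; reporter light over untreated wells divided by growth signal over untreated wells; some hits fall short of that in this replicate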
HIV Env fusion: inhibitors of HIV-1 Env-driven cell-cell fusion, primary screen, HeLa-JRFL effector, CEM21 target cells, luciferase. 1.1% of 360,000 active. AID 651610, 2012. inhibition, % at 12.3 µM;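 active means mean replicate inhibition score of at least 50 and every replicate individually at or above 50; inconclusive means only one of the two criteria met; inactive means mean below 50 and not all replicates reaching 50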;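 further: 0% = plate neutral controls and 100% = maraviroc near 300 nM; one replicate is shown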
MT1-MMP act inh: blockers of MT1-MMP proenzyme processing, primary screen, HT1080 RFP-PRO-GFP cells, GFP/RFP fluorescence | GFP/RFP ratio fluorescence, overnight; percent of plate control window, DMSO zero | GFP/RFP ratio change, % at 20 µM | 0.061% of 360,000 active;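 active means GFP/RFP ratio change of at least 30% with cell ATP level not reduced by more than half and red fluorescence within 50% of control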; further: strong numbers were not always called active
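Read-out: GFP/RFP fluorescence ratio; Test system: RFP-PRO-GFP reporter HT1080 cells; Compound dosing: single-point 20 µM compound, 1% DMSO; Times: overnight compound exposure at 37 °C.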
Rce1 inhib: yeast Rce1p protease inhibitors, primary screen, biochemical, fluorescence, cell-free homogeneous. yeast membranes, quenched prenylated peptide cleavage fluorescence. calls only. 0.27% of 290,000 active. CAAX prenyl protease 2 (Saccharomyces cerevisiae (strain ATCC 204508 / S288c)), Q03530;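 active means fall in fluorescence gain of 50% or more versus controls, with final raw signal at or below 3038400; inconclusive means same 50% fall but final raw signal above 3038400; inactive means fall in fluorescence gain under 50%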;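 further: plate controls were neutral control wells for no effect and wells lacking membranes for full effect; tested at 10 µM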
Target sequence (Q03530 whole entry, looked up): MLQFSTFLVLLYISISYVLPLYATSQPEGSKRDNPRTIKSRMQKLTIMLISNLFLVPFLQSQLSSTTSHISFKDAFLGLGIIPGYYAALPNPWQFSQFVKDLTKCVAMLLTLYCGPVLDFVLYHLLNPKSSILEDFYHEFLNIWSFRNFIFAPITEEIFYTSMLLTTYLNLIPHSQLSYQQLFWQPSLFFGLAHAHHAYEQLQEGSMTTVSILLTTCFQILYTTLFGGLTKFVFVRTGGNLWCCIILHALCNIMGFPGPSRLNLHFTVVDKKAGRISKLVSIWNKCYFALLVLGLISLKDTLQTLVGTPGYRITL
eIF4H FP inh: human eIF4H binding inhibitors, primary screen, translation initiation inhibitor project, biochemical, uHTS, fluorescence polarization; 0.94% of 290,000 active; Eukaryotic translation initiation factor 4H (Homo sapiens), Q15056; AID 2012, 2009; eIF4H fluorescence polarization binding assay; inhibition, % at 35 µM;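 active means 50% or more with normal probe brightness, or confirmed in later tests; inconclusive means above 50% with abnormal brightness, or retests that disagree; inactive means below 50% or failed in later tests; about a fifth of its hits are not listed in these tables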;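 further: calls also rest on retests at 20 µM and on dose response follow-up; 0% = protein and probe with vehicle and 100% = probe without protein; strong numbers were not always called active; many hits fall short of the cut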
PABP FP inh: PABP poly(A) RNA binding inhibitors, primary screen, biochemical, fluorescence polarization, uHTS; inhibition, % at 35 µM; 1% of 290,000 active; Polyadenylate-binding protein 1 (Homo sapiens), P11940;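 active means 50% or more with normal probe brightness, or confirmed in later tests; inconclusive means above 50% with abnormal brightness, or retests that disagree; inactive means below 50% or failed in later tests; about a fifth of its hits are not listed in these tables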;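 further: calls also rest on retests at 20 µM and on dose response follow-up; controls were probe without protein and protein plus probe with vehicle; some compounds called inactive have numbers as strong as hits; many hits fall short of the cut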
Target sequence (P11940 whole entry, looked up): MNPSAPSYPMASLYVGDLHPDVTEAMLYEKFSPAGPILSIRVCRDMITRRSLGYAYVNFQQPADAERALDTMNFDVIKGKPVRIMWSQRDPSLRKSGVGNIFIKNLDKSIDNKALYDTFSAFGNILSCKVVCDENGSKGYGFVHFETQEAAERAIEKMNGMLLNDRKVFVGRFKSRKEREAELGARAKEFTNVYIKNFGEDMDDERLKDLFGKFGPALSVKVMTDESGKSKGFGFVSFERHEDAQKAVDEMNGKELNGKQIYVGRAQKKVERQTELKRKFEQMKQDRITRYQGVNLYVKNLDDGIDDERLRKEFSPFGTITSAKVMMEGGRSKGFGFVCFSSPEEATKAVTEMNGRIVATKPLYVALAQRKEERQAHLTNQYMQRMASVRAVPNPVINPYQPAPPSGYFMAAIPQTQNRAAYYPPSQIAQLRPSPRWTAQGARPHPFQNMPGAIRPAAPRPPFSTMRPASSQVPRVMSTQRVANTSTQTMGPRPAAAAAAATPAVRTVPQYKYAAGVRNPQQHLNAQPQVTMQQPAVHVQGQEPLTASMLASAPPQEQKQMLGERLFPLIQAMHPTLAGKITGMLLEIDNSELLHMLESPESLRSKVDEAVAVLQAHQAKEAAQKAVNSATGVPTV
CSC inhib: cancer stem cell viability inhibitors, primary screen, luminescence; cancer stem cell-like cells viability; inhibition, % at 7.5 µM; 1.1% of 300,000 active;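 active means mean at 75% or more and at least half the replicates too; inconclusive means mean and replicates disagree; tested in HMLE shEcad cells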;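 further: 0% = median of negative and 100% = median of positive control wells; the first replicate is given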
MT1-MMP act inh RFP: recorded beside MT1-MMP act inh, whose call it bears; RFP signal change, %; measured here: RFP expression control read;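 0 = vehicle wells; hits needed this value within 50% of zero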
* marks the source's active call; other numbers are inactive results; i = inactive; ? = inconclusive; / = no result given; & = joins results of further samples. Some of the compounds tested; the hit share may differ from the screen's.

Every second line gives: eIF4H FP inh, MT1-MMP act inh, CSC inhib, MT1-MMP act inh RFP, PABP FP inh, HIV Env fusion, Rce1 inhib, UUG fidelity
Cc1ccc(C2C(/C=C3/SC(=S)NC3=O)=C(c3cccs3)Oc3ccccc32)cc1 (stereo not drawn)
    22, -20, 108*, -22, 32, /, i, /
COCCc1nn2c(=O)cc(COC(=O)c3cc(OC)c(OC)c(OC)c3)nc2s1
    -19, 1, -11, 1, 0, -5, i, -10
CN(C)N1C(N)=C(C#N)C(c2ccc(F)cc2)C2=C1CCCC2=O (stereo not drawn)
    4, 0, -8, 1, 4, 2, i, -9
O=C(NCC(=O)N1CCN(Cc2ccccc2)CC1)c1ccc(Br)cc1
    -2, 4, -11, -1, 4, 11, i, 4
COc1ccc(S(=O)(=O)N2CCCC(C(=O)NCc3cccnc3)C2)cc1C (stereo not drawn)
    /, 4, /, 0, /, 6, /, -19
CCc1nc2c(OCc3cc(Cl)cc(Cl)c3)cccn2c1N(C)C(=O)CC(C)C
    /, 1, /, -5, /, 9, /, -19
C[C@H](CO)N1C[C@H](C)[C@@H](CN(C)S(=O)(=O)c2cn(C)cn2)Oc2ccc(NC(=O)Cc3ccccc3)cc2C1=O
    /, 1, -9, 0, /, -16, /, -9&-9
Cc1cc(C)c(C)c(OCCCOc2cccc3cccnc23)c1
    -9, -3, 28, 4, -11, 19, i, /
COc1ccc(CCC(C(O)C(F)(F)F)S(=O)c2ccccc2)cc1 (stereo not drawn)
    6, -2, -4, -2, 3, 41, i, 2
N#Cc1c(-c2ccccc2)nc(SCC(=O)N(c2ccccc2)c2ccccc2)[nH]c1=O
    -9, -1, -5, -1, 5, 9, i, 3
CC1(C)CC(NC(=O)c2ccccn2)CC(C)(C)N1O
    8, -1, 2, 5, -4, 23, i, /
CCC(=O)Oc1ccc(C(=O)Nc2cccc(C(=O)NC(C)(C)C)c2)cc1
    -4, 2, -14, 5, -3, -11, /, /
CN(C)c1nc2c(c(=O)[nH]c(=O)n2C)n1CCCc1ccccc1
    -10, 0, 0, 6, 2, 5, i, -7
O=C(NCc1nnnn1-c1ccc(F)c(F)c1)c1ccc2c(c1)OCO2
    /, -5, 0, 1, /, /, i, -18
CCOc1cc(C(=O)OCC(=O)Nc2cccc(S(=O)(=O)NC3=NCCCCC3)c2)cc(OCC)c1OCC
    /, 1, -19, -2, /, -9, /, -8
COC(=O)C1CCN(C(=O)COC(=O)CC(NC(N)=O)c2ccc(Cl)cc2)CC1 (stereo not drawn)
    -5, -2, -11, 0, 0, -74, i, -16
COCCn1c(C)cc(C(=O)COC(=O)C23CC4CC(CC(O)(C4)C2)C3)c1C
    -11, -3, -8, 3, 8, -92, i, -31
COc1ccc(CCNC(=O)/C(=C/c2cccnc2)NC(=O)c2ccccc2)cc1OC
    1, 0, -4, 5, 20, -3, i, /
Cc1ccc(C(=O)NCC(=O)Nc2ccncc2)s1
    -10, 2, -14, -6, 0, 7, i, -10
COc1ccc2nc(NC(=O)C3COc4ccccc4O3)sc2c1 (stereo not drawn)
    9, 1, -4, 6, 6, -109, i, -38
Cc1cccc(-c2nnc(SCC(=O)Nc3ncccn3)n2C)c1
    -6, -3, -17, 0, -7, -11, i, -22
CNC(=O)NNC(=O)c1nc(-c2ccccc2)c(C)o1
    -2, 2, 8, -2, 7, 15, i, -16
CS(=O)(=O)Nc1cccc(C2=NN(S(=O)(=O)c3ccccc3)C(c3ccco3)C2)c1 (stereo not drawn)
    5, -1, /, 2, -15, -2, i, /
Cc1[nH]c2ccccc2c1/C=C/C(=O)c1ccncc1
    72*, -9, 10, -7, 52*, 4, i, /
N#Cc1c(N)nc2c3c(sc(=N)c2c1N)NC(=O)CC3c1c(F)cccc1Cl (stereo not drawn)
    21, -7, 2, -1, 9, -35, i, -13
COc1ccc(NC(=O)c2sc(=O)n(Cc3ccc4ccccc4c3)c2C)cc1OC
    /, -5, /, -3, /, 17, /, -14
CS(=O)(=O)c1ccc(S(=O)(=O)N2CCC(CO)(CCCc3ccccc3)CC2)cc1
    -4, 2, 3, -8, -4, 2, i, -5
Cc1ccccc1NC(=O)OCCN1CCN(Cc2ccccc2)CCC1=O
    2, 3, -10, 4, -3, -1, i, -9
CCOCCCNC(=O)c1ccc(Cn2c(=O)[nH]c3ccsc3c2=O)cc1
    2, 7, 1, -1, -3, 7, i, -12
COc1ccccc1NS(=O)(=O)c1cccc(C(=O)NCC(C)(C)N2CCOCC2)c1
    -5, 2, 2, 5, -8, -4, i, -5
O=C(Nc1nc(-c2ccc(S(=O)(=O)N3CCCC3)cc2)cs1)c1cccs1
    -2, -11, 17, -33, -2, /, /, -9
COCCNC(=O)CN(C(=O)CCC(=O)Nc1ccccn1)c1ccccc1F
    3, 6, -12, 1, -13, 14, i, /
CCN(C(=O)COC(=O)c1ccccc1Cc1ccccc1)C1CCS(=O)(=O)C1 (stereo not drawn)
    /, -3, -4, 0, /, -3, i, /
COc1ccc(-n2nnnc2-c2cccnc2)cc1
    -6, 6, 11, 7, -5, -40, i, -7
COc1cccc(/C=C/C2=CC(C)(C)NC(=S)N2)c1
    -5, -1, -1, 2, -2, -14, i, /
O=[N+]([O-])c1cccc(OCCN2CCC(Cc3ccccc3)CC2)c1
    -1, -1, 14, 5, -1, 0, i, 2
N#CC(c1ccc(Cl)cc1)(c1ncc(C(F)(F)F)cc1Cl)N1CCOCC1 (stereo not drawn)
    -16, -4, 1, 0, -15, -7, i, 0
COC(=O)C1C(O)=C(C=NCC(C)N=CC2=C(O)C(C(=O)OC)C(C)(C)CC2=O)C(=O)CC1(C)C (stereo not drawn)
    0, 5, /, 4, 2, /, i, 2
COc1cccc(-n2nnnc2SCC(=O)NC2CCCCC2)c1
    -3, -1, -8, -1, 0, 6, i, -12
O=C(c1ccc(Cl)cc1)N1CCN(c2ccnc3cc(Cl)ccc23)CC1
    4, -4, /, -20, 5, ?, i, /
Cc1ccc(C(=O)NC(=S)Nc2ccccc2C(F)(F)F)cc1
    -1, 6, /, -6, -5, /, i, -12
COC(=O)C1=CN(C)C=C(C(=O)OC)C1c1ccsc1
    7, 0, /, 4, 0, /, i, -22
CCOC(=O)N1CCC(N2Cc3cccc(C(=O)NCc4ccccn4)c3C2=O)CC1
    1, -1, 7, -4, -2, -3, i, -10
O=C(Nc1ccc(F)cc1)Nc1nnc(-c2ccncc2)s1
    40, -6, 41, -34, 2, /, i, -21
CCN(CC(=O)NCc1ccc(F)cc1)C(=O)C1CCN(C(=O)Nc2ccccc2)CC1
    -13, -1, /, -7, 6, -57, i, -10
COc1ccc(Nc2nc(N)c([N+](=O)[O-])c(N3CCN(C)CC3)n2)cc1
    -8, -2, 1, -7, 20, -5, i, /
O=C(Nc1cccc(C(F)(F)F)c1)Nn1cnnc1
    4, 2, -11, 4, -3, -13, i, -26
CC(C)c1nc2c(s1)CCc1onc(-c3cccc([N+](=O)[O-])c3)c1-2
    /, 2, 48, -1, /, 6, i, -9
CCn1nc(-c2ccccc2)c2nc3ccccc3nc21
    ?, -7, 2, 2, ?, /, i, -13
OCC[C@@H]1C[C@@H](O)[C@H](O)[C@@]2(OCCc3ccccc32)O1
    8, -1, -6, 1, -16, 11, i, -1
O=S(=O)(c1ccc(NC(=S)N/N=C/c2ccc(Oc3ccccc3)cc2)cc1)N1CCOCC1
    -1, 2, -2, 0, 8, 1, i, /
CSc1ncc(C(=O)Nc2ccc(Br)cn2)c(C)n1
    ?, -8, 14, -2, ?, -17, i, -20
Cc1ccc(C(=O)/C=C\C(=O)c2ccc(C)cc2)cc1
    3, -1, 10, 0, -1, -22, i, /
C=CCN(Cc1ccc(Br)s1)C(=O)c1ccc(OCc2c(C)noc2C)cc1
    /, -1, /, -17, /, 3, /, -1
O=C(OCC(=O)c1c[nH]c2ccccc12)c1cc(Br)ccc1O
    -14, 2, -1, -3, -19, 6, i, /
CC(CCc1ccccc1)NC(=O)c1cc2sccc2n1C (stereo not drawn)
    -4, -1, -5, -3, 4, /, i, /
COc1cc(C#Cc2c(-c3cncn3C)n(C)c3ccc(-c4cnc(OC)nc4)cc23)cc(OC)c1
    /, -11, ?, -7, /, 43, /, -13
COc1ccc(C(=O)N/N=C/c2ccc(OC(=O)c3cccs3)cc2)cc1
    4, 6, 17, 3, -11, /, i, /
CC1CCCC/C1=N\NS(=O)(=O)c1ccc(Br)cc1 (stereo not drawn)
    1, 9, -7, 2, 5, 1, i, -8
CCOc1ccc(NC(=O)CC)cc1
    -8, /, -10, /, -5, -4, i, /

Next structures.
Every second line gives: eIF4H FP inh, MT1-MMP act inh, CSC inhib, MT1-MMP act inh RFP, PABP FP inh, HIV Env fusion, Rce1 inhib, UUG fidelity
COc1ccc(C(=O)NCCn2ccc3ccccc32)cc1OC
    18, -4, -16, 0, -2, -1, i, -9
CCCNC(=O)c1cc(C2CCCN(C(=O)c3ccc4c(c3)CCO4)C2)on1 (stereo not drawn)
    /, 3, /, 2, /, -3, /, -9
COC(=O)c1sccc1NC(=O)Nc1cccc(C(C)=O)c1
    -15, -4, 5, -8, -8, 3, i, /
Brc1ccccc1OCCN1CCCC1
    /, 4, /, 5, /, -2, i, 5
CCOC(=O)c1c(C)[nH]c(C(=O)CN2C(=O)NC(C)(C)C2=O)c1C
    /, 2, /, 4, /, -4, /, -10
COc1cc(CN2CCNC(=O)C2CC(=O)N(C)CCCN2CCOCC2)cc(OC)c1 (stereo not drawn)
    -4, 0, -6, 4, -4, /, i, 7
Cc1ccc2c(c1)N(Cc1ccncc1)C(=O)C(C)O2 (stereo not drawn)
    -12, 3, -6, 5, 5, 26, i, -19
COCCn1c(SC(C)C(=O)Nc2ccc3c(c2)OCCO3)nc2ccccc2c1=O (stereo not drawn)
    -13, -3, -12, -2, 2, 23, i, -6
CCn1c2ccccc2c2cc(NC(=O)N3CCOCC3)ccc21
    2, -3, -15, 0, 0, /, i, -14
Cc1cc(=O)nc2c3ccccc3n(C(C)C(=O)NCCC(C)C)n12 (stereo not drawn)
    -5, 4, -2, 6, 5, -13, i, -2
COc1ccccc1CNC(=O)COC(=O)c1cccs1
    /, 3, 19, 4, /, -4, /, -18
COc1ccc2c(c1)sc(=N)n2CC(=O)Nc1cc(C)cc(C)c1
    -9, 2, 6, -3, 11, 12, i, /
CC(=O)Nc1cccc(OCC(=O)/C=C2\N(C)c3ccccc3C2(C)C)c1
    28, 14, 11, 6, -12, 4, i, 4
O=C1C(c2ccc(F)cc2)N(CC2COc3ccccc3O2)C(=O)CN1C1CCCCC1 (stereo not drawn)
    2, -13, -1, -10, -1, 43, i, -13
Fc1ccc(NC(=S)N2CCCc3ccccc32)cc1
    25, 4, 12, -13, 34, /, i, /
CC(CCc1ccccc1)NC(=O)COC(=O)CC1CC2CCC1C2 (stereo not drawn)
    -9, 2, -6, 1, 0, -1, i, /
COc1ccc(-c2nnnn2C(C)C)cc1
    -4, 1, 1, 3, -3, 9, i, -22
CCc1nnc(NC(=O)c2ccc(S(=O)(=O)N3CCCC3)cc2)s1
    -2, 2, 4, 0, -4, 3, i, /
Cn1cc(C(=O)NCc2cccnc2)c(=O)c2cc(S(=O)(=O)N3CCCCCC3)ccc21
    -3, /, -5, /, -7, /, i, /
